High-throughput results: PubChem, several laboratories
MLL AF4-AF9 inh = inhibitors of AF4 peptide binding to AF9, primary screen, biochemical, AlphaScreen, biotin-AF4 peptide, FLAG-AF9, single point; Protein AF-9 (Homo sapiens), P42568; inhibition, % at 10 µM; actives 0.47% (n = 350,000);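 active = every replicate reaching a set inhibition limit, whatever the replicate mean, cut at about 25% in these data; inconclusive = mean inhibition reaches that limit but some replicates miss it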;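 note: 0% = plate neutral control median and 100% = total signal loss; the record names both 10 and 1 µM as test concentration; the first replicate is given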
ALR H2O2 inh = inhibitors of human ALR sulfhydryl oxidase, primary screen, biochemical, H2O2 detection, HRP-luminol luminescence, single point. inhibition, % (test concentration not listed). purified ALR, DTT oxidation. FAD-linked sulfhydryl oxidase ALR (Homo sapiens), P55789. AID 485317, 2010. actives 3.8% (n = 290,000);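 active = mean and each replicate at 75% or more; inconclusive = only one of the two met; inactive = neither met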;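 note: stock transfer was 7.5 nL into about 7.5 µL; 0% = neutral wells and 100% = wells with inactivated enzyme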
Target sequence (P55789 whole entry, looked up): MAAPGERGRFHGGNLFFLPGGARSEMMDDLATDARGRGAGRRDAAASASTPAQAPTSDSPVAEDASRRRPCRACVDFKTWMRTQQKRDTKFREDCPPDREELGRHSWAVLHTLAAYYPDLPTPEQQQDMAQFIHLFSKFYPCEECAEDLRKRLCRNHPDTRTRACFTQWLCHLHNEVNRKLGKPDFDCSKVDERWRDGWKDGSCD
E coli growth = E. coli growth inhibition, primary screen, OD600; Escherichia coli growth, 23 h; hits give low values; AID 1053175, 2014; OD600 absorbance (no concentration beside the values); actives 0.21% (n = 330,000);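 active = OD600 absorbance below the run mean of sample wells minus 3.6 SD, in any replicate, cut at about 0.56 in these data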;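 note: stock transfer was 300 nL into about 60 µL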
rRNA inh HTS = reduced GFP signal of wild-type E. coli, primary screen, bacterial rRNA inhibitor project, GFP/RFP fluorescence, OD600, single point; E. coli WT GFP vs humanized-ribosome RFP mutants, 24 h; hits give low values; DMSO median 0, no signal -100; GFP signal change (wild-type ribosome), % (concentration not given with the values); actives 1.6% (n = 350,000);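 active = significant combined selectivity score with lowered wild-type GFP, culture density cut under 30%, mutant RFP and density less affected; inactive = any of these conditions unmet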; note: one replicate is shown; some compounds called inactive have numbers as strong as hits
Vif TR-FRET = inhibitors of Vif binding to APOBEC3G peptide, primary screen, biochemical, TR-FRET, GST-Vif 1-94, biotin-A3G peptide, dose response retest (AID 1117319); actives 0.57% (n = 260,000); TR-FRET GST-Vif / biotin-A3G peptide binding; higher % means a stronger effect; test concentration not given here; strong numbers were not always called active; inhibition, %; hits with a dose series show IC50 in µM;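 active = above the screen mean plus three standard deviations and confirmed in dose response; inconclusive = results disagree or hit not tested in dose response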;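 note: Vif residues 1-94 fused to GST binding biotinylated APOBEC3G peptide 110-148; 0% = full assay without inhibitor and 100% = GST in place of GST-Vif; retest series ran down from 100 µM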
HNF4A DNA FP = change in binding of human HNF4A to DNA, primary screen, biochemical, fluorescence polarization, FITC-DNA | Hepatocyte nuclear factor 4-alpha (Homo sapiens), P41235 | 1 h | activity change, % at 10 µM | actives 0.3% (n = 360,000) | AID 1224865, 2016; in the data active = activity change above about 30%, passing the limit was not always enough;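 note: controls were the assay level and a saturating level of protein; the project sought stronger binding though the title names inhibitors; some compounds called inactive have numbers as strong as hits; positive values seem to mean higher polarization but the record does not say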
Target sequence (P41235 whole entry, looked up): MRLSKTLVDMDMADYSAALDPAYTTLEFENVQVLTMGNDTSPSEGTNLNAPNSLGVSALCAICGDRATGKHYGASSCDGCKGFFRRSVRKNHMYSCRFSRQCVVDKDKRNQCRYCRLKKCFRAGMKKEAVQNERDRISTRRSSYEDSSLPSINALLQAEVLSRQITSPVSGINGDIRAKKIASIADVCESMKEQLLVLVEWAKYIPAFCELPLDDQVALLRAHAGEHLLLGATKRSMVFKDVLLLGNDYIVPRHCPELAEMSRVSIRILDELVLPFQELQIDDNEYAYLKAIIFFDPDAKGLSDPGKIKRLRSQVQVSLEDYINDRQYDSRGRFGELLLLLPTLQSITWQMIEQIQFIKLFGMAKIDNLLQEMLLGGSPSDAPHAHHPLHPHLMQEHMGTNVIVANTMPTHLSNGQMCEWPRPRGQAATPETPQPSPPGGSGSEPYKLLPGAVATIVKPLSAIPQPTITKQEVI
FGF22 binding = binders of human FGF22 protein, primary screen, FGF22 synaptogenesis inhibitor project, biophysical, thermal shift, single point; Fibroblast growth factor 22 (Homo sapiens), Q9HCT0; recombinant FGF22 thermal shift, SYPRO orange fluorescence; percent of sucrose octasulfate shift, DMSO zero; calls only at 9.99 µM; actives 1.5% (n = 340,000); AID 651658, 2012;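 active = melting point raised past a set limit in the mean and every replicate; inconclusive = no clear call; three in four hits are not shown here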
Target sequence (Q9HCT0 whole entry, looked up): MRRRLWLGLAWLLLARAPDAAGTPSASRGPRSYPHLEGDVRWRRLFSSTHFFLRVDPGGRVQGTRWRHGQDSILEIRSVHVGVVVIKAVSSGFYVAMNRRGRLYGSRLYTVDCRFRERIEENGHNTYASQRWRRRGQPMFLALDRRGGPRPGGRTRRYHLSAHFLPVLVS
rRNA inh HTS OD600 = also measured in rRNA inh HTS; calls as there; OD600 change, %; measured here: OD600 growth;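 optical density of the mix in the first replicate; 0 = DMSO median and -100 = no signal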
rRNA inh HTS RFP = further read-out of rRNA inh HTS, marked with its call; RFP signal change, %; measured here: RFP humanized mutant strains;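 first replicate; 0 = DMSO median and -100 = no signal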
* = called active by the depositor; i = inactive; ? = inconclusive; nt = not tested or not shown; + = active, no number.

SMILES	MLL AF4-AF9 inh	ALR H2O2 inh	E coli growth	rRNA inh HTS	rRNA inh HTS OD600	rRNA inh HTS RFP	Vif TR-FRET	HNF4A DNA FP	FGF22 binding
Cc1onc(-c2ccccc2)c1C(=O)OCCOc1ccc([N+](=O)[O-])cc1[N+](=O)[O-]	-4.1	-12	0.66	-10	-7	-3.1	1%	0.1	i
CCc1c(C)nc2[nH]ncn2c1=O	-1.9	nt	nt	5	5	-1.0	-14%	-0.1	i
Nc1[nH]c(N=NC(=O)c2ccc(F)cc2)c2ccccc12	1.3	99*	0.63	-5	1	-1.2	6%	4.8	i
COc1ccc(OC)c(NC(=O)Nc2cccc3ccccc23)c1	nt	-4	0.7	nt	nt	nt	3%	-2.0	nt
OCCN1CCN(c2ncnc3c2ncn3[C@H]2CN(Cc3cccs3)C[C@@H](CO)O2)CC1	-1.1	nt	nt	13	15	3.7	nt	3.7	i
CCOc1cc(-c2c(C)c(CC)nc(N)c2C#N)ccc1O	nt	0	0.76	nt	nt	nt	0%	-0.5	nt
CC(C)(C)c1ccc(CC(=O)N2CCC2(C)C(=O)NS(=O)(=O)c2ccc(F)cc2F)cc1 (stereo not drawn)	-0.1	nt	nt	7	9	0.2	nt	0.1	i
COc1ccc2cc(C(=O)N(C)Cc3ccccc3)[nH]c2c1	-1.1	-10	0.68	6	8	7.5	-11%	3.6	i
Cc1ccccc1S(=O)(=O)N1[C@H](CO)[C@@H](c2ccc(C#CC3CC3)cc2)[C@@H]1C#N	0.6	nt	nt	-5	-38	13	nt	nt	i
CN(C)C(=O)c1cccc(-c2ccc([C@H]3[C@H]4CN(C(=O)C5CCCC5)CC(=O)N4[C@H]3CO)cc2)c1	13	nt	nt	6	18	3.5	nt	nt	i
O=C1NCCN/C1=C\C(=O)c1cccc(Br)c1	3.4	6	0.64	-3	-5	0.7	7%	4.2	i
COc1c2ccoc2nc2c(OC)c(OCC(OC(C)=O)C(C)(C)O)ccc12 (stereo not drawn)	-1.3	-2	0.76	-2	7	-0.8	-3%	1.0	i
CCN(C(=S)NC(=O)Cc1ccc(OC)cc1)c1ccccc1	-2.1	2	0.68	-10	1	8.0	nt	2.0	i
CN(C(=O)COC(=O)c1nc(-c2ccccc2)n(-c2ccccc2)n1)C1CCS(=O)(=O)C1 (stereo not drawn)	nt	-12	0.74	nt	nt	nt	-1%	5.7	nt
O=C1N=NC(=O)N1c1ccccc1	-1.9	87*	nt	3	12	-3.7	nt	4.5	i
O=C(NC1CCCCC1)c1ccc(CS(=O)(=O)Cc2ccccc2F)o1	nt	16	0.69	nt	nt	nt	11%	-2.8	nt
C[C@@H]1CN([C@H](C)CO)C(=O)c2cc(NC(=O)CCN3CCOCC3)ccc2O[C@@H]1CN(C)Cc1ccccc1	0.2	nt	nt	1	3	-4.7	nt	nt	i
O=C(c1ccccc1F)N1CC(=O)N2[C@H](CO)[C@@H](c3ccc(-c4ccc(F)cc4)cc3)[C@H]2C1	1.9	nt	nt	3	-22	10	nt	nt	i
CC(C(=O)Nc1cccc([N+](=O)[O-])c1)N1CCN(C/C=C/c2ccccc2)CC1 (stereo not drawn)	nt	1	0.68	nt	nt	nt	nt	0.7	nt
CN(Cc1ccccc1)C(=O)C1CCN(S(=O)(=O)c2ccc3nc4c(c(C(=O)O)c3c2)CCCC4)CC1	4.3	-9	0.73	5	14	2.6	18%	-5.9	i
COc1ccc(NC(=O)Nc2ccc3c(c2)C(=O)N([C@@H](C)CO)C[C@@H](C)[C@H](CN(C)S(=O)(=O)c2ccccc2)OCCCC[C@H](C)O3)cc1	-1.9	nt	nt	-1	4	-1.8	nt	nt	i
C[C@@H]1CCCCO[C@@H](CN(C)CC2CC2)[C@@H](C)CN([C@H](C)CO)C(=O)c2cc(NS(=O)(=O)c3ccc(F)cc3)ccc2O1	-3.9	nt	nt	2	8	-0.5	nt	nt	i
C[C@@H]1CCCCO[C@@H](CN(C)Cc2ccccc2)[C@@H](C)CN([C@H](C)CO)C(=O)c2cc(NC(=O)CCC(F)(F)F)ccc2O1	0.9	nt	nt	3	7	-0.1	nt	nt	i
C[C@@H]1CN([C@H](C)CO)S(=O)(=O)c2ccc(/C=C/c3ccccc3)cc2O[C@H]1CN(C)C	17	nt	nt	-1	0	5.9	nt	nt	i

Part of the list above, showing only Vif TR-FRET and rRNA inh HTS RFP.
SMILES	Vif TR-FRET	rRNA inh HTS RFP
CN(Cc1ccccc1)C(=O)C1CCN(S(=O)(=O)c2ccc3nc4c(c(C(=O)O)c3c2)CCCC4)CC1	18%	2.6
COc1ccc(NC(=O)Nc2ccc3c(c2)C(=O)N([C@@H](C)CO)C[C@@H](C)[C@H](CN(C)S(=O)(=O)c2ccccc2)OCCCC[C@H](C)O3)cc1	nt	-1.8

The listing continues:
SMILES	MLL AF4-AF9 inh	ALR H2O2 inh	E coli growth	rRNA inh HTS	rRNA inh HTS OD600	rRNA inh HTS RFP	Vif TR-FRET	HNF4A DNA FP	FGF22 binding
O=S(=O)([O-])CCC[n+]1ccc(Oc2ccccc2)cc1	-8.5	7	0.67	-1	-3	-1.3	nt	1.5	i
CCOc1ccc(C(=O)NCC(=O)NCCOc2ccc(C)cc2)cc1	1.4	25	0.71	4	8	1.7	32%	1.7	i
O=C(Nc1nccs1)c1ccc(S(=O)(=O)NCc2cccs2)cc1	-48	0	0.66	-8	1	3.3	14%	-1.1	+
COC(=O)c1c(-c2cccc3ccccc23)csc1NC(=O)Cc1ccc(OC)c(OC)c1	nt	7	0.73	nt	nt	nt	-13%	-1.1	nt
COc1ccc(S(=O)(=O)N2CCCCCC2)cc1C(=O)NCCc1ccccc1	0.5	-7	0.69	-28	-34	-3.8	-4%	5.3	i
Oc1ccc(-c2nccc(-c3ccc(Br)cc3)n2)cc1	-1.2	nt	0.67	8	12	1.6	-19%	-2.3	i
COc1ccc(S(=O)(=O)N2CCOCC2)cc1NC(=O)CSc1nnc2ccccn12	nt	-4	0.65	nt	nt	nt	1%	nt	nt
CC(=O)c1cn(CC(=O)Nc2ccccc2C)c2ccccc12	nt	-4	0.68	nt	nt	nt	1%	1.6	nt
COc1ccc(-c2cc(C(=O)Nc3ccc(OC)cc3OC)no2)cc1	-3.8	-1	0.67	19	14	1.4	-3%	-1.0	i
CCOc1cccc(-c2cc(C(=O)Nc3ccon3)c3ccccc3n2)c1	7.8	0	0.64	-5	-20	0.7	nt	1.7	i
CS(=O)(=O)N1CCC(Oc2cccc(C(=O)NCCCOc3cccnc3)c2)CC1	-9.4	-5	0.67	-4	3	-1.8	nt	-5.1	i
COc1ccc(C2c3[nH]c4ccccc4c3C[C@H]3C(=O)N(c4ccccc4C(=O)N4CCC(C(=O)O)CC4)C(=O)N23)cc1 (stereo partly drawn)	-1.6	10	0.72	-8	0	-12	nt	0.0	i
Cc1ccc(S(=O)(=O)Nc2cccc3c2O[C@@H](CN(C)C(=O)Nc2ccc4c(c2)OCO4)[C@@H](C)CN([C@H](C)CO)C3=O)cc1	6.7	nt	nt	-7	-12	3.8	nt	nt	i
N#CCSc1ccccc1NC(=O)CN1C(=O)C2CC=CCC2C1=O (stereo not drawn)	-0.5	nt	0.69	6	6	-2.3	-1%	5.0	i
CC1CCN(C(=O)c2ccccc2NC(=O)Cc2ccccc2)CC1	0.9	-5	0.74	5	-2	-0.9	-6%	2.5	i
O=C(/C=C/c1ccc(F)cc1)NC(=S)N1CCOCC1	-1.7	-6	nt	11	4	-1.5	nt	6.8	nt
COc1ccc(NC(=O)N(C)C[C@@H]2Oc3c(NS(C)(=O)=O)cccc3C(=O)N([C@H](C)CO)C[C@H]2C)cc1	-1.4	nt	nt	5	8	-1.0	nt	nt	i
CCOC(=O)c1snc(-c2ccc(F)cc2)c1N	nt	-15	0.66	nt	nt	nt	-7%	-3.4	nt
CC(=O)Oc1ccc(Cn2cnc3cc4ccccc4cc32)cc1	nt	-36	0.64	nt	nt	nt	4%	1.0	nt
O=c1oc2ccccc2c(O)c1Cc1cc(Cl)c2cccnc2c1O	-1.2	-2	0.67	-48	-76	-24	8%	-4.0	i
Cc1onc(-c2c(F)cccc2Cl)c1C(=O)OCC(=O)N(C)c1ccccc1	2.1	nt	nt	-21	-41	-3.3	-7%	4.0	i
CC(C)(CNC(=O)CC1C(=O)NCCN1Cc1cccc(F)c1)N1CCOCC1 (stereo not drawn)	-1.1	-51	0.67	19	15	0.3	-3%	2.4	i
COc1cc2c(cc1NC(=O)Nc1ccc(F)cc1)oc1ccccc12	nt	-8	0.73	nt	nt	nt	-1%	-1.4	nt
CC(=O)c1ccc(N(C(=O)CS(=O)CC(=O)Nc2ccc(F)cc2)C(C(=O)NC2CCCCC2)c2cccs2)cc1 (stereo not drawn)	-6.1	10	0.7	16	7	2.2	?	-2.5	i
Cc1ccc(C)c(NC(=O)c2ccc3c(c2)CCN3S(C)(=O)=O)c1	-1.4	nt	nt	2	4	-1.9	-6%	0.6	i
COc1ccc(NC(=O)Nc2ccc3c(c2)C(=O)N([C@H](C)CO)C[C@H](C)[C@@H](CN(C)C(=O)C2CCCCC2)OCCCC[C@@H](C)O3)cc1	4.6	nt	nt	-1	7	2.8	nt	nt	i
Cc1ccc(C)c(NC(=O)c2cc3c([nH]c4ccccc43)c(C)n2)c1	nt	nt	0.67	nt	nt	nt	-84%	4.5	nt
Cc1cc(C)n(-c2ccccc2C#N)n1	nt	-12	0.6	-1	3	-3.0	nt	-0.6	i
O=c1c2ccccc2nnn1COc1ccc(Cl)cc1Br	1.2	nt	0.66	7	3	2.7	-10%	-1.8	i
Cn1c(=NC(=O)COc2ccccc2)sc2ccccc21	-0.7	-11	0.68	14	19	1.2	-92%	2.3	i
CCOC(=O)c1ccc(NC(=O)CSc2nc(=O)n(CCN3CCOCC3)c3c2CCC3)cc1	4.0	nt	0.71	5	3	3.1	-6%	0.6	i
Cc1ccc(-c2cccc(C(=O)NCc3ccccc3)n2)c2ccccc12	0.7	-3	0.72	7	3	-1.6	14%	-3.2	i
NNC(=O)CNC(c1ccccc1)c1cc(Cl)ccc1NC(=O)c1ccccc1 (stereo not drawn)	-2.2	-17	0.68	5	10	-0.5	nt	1.5	i
Cc1ccccc1Cn1ccc(NC(=O)c2nn(C)cc2[N+](=O)[O-])n1	-7.4	-4	0.69	7	-1	1.8	nt	-1.2	i
O=[N+]([O-])c1ccccc1/C=N/NC1=NCCCCC1	3.8	-3	nt	-3	6	-4.8	?	3.3	i
Cc1cccc(-c2n[nH]c(S(C)(=O)=O)c2C#N)c1	97*	0	0.66	-16	-5	4.8	1%	3.5	i
CCCC(=O)n1nc(-c2ccc(Cl)cc2)nc1SC	nt	17	nt	nt	nt	nt	1%	-0.1	nt
CCOC(=O)N1CCC(NC(=O)C2CCN(S(=O)(=O)c3cccs3)CC2)CC1	nt	0	0.76	nt	nt	nt	-4%	3.4	nt
O=C(c1ccccc1)N(C(=O)c1ccccc1)N1CCCC1	-1.8	nt	0.65	-6	-17	0.7	-7%	-1.9	i

An excerpt. The share of hits here may be higher or lower than overall.
